# Bioassay records (PubChem)
# Bead autofluor = flagged as autofluorescent in microsphere protease counterscreen; compound autofluorescence counterscreen, microsphere flow cytometry; stronger effect = higher value; fluorescence intensity (concentration not given with the values); actives 3.1% (n = 360,000); AID 624483;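 active = at least 3 SD above the mean of all compounds, about 16000 in these data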;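 note: 100 nL of 1 mM stock went into each well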
# ugtP null kill = growth inhibition of ugtP-null S. aureus, primary screen, RN4220 ugtP deletion, OD600. 16 h; some inactives read as strong as hits. actives 0.54% (n = 330,000). growth inhibition, % (concentration not given with the values). AID 1259309, 2017;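 active = z-score under -3 and OD600 up to 0.15 on both plates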;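 note: plate controls were untreated wells for no effect and antibiotic for full effect; wells of about 80 µL received 100 nL stock; the first replicate is given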
# Sa RN4220 lethal = growth inhibition of S. aureus RN4220, primary screen, OD600. 16 h. inhibition, % (test concentration not listed). actives 0.33% (n = 330,000). AID 1259311, 2017;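 active = z-score of -3 or lower and OD600 up to 0.18 on both plates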;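 note: plate controls were untreated cells for no effect and reference antibiotic for full effect; stock transfer was 100 nL into about 80 µL; one replicate is shown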
# BJeLR viability = MLPCN primary cell-based screen for lethality selective to Ras in HRASV12 cells; BJeLR (HRASV12) viability, CellTiter-Glo ATP luminescence, 48 h; reference of the scale not given here; inhibition, % (concentration not given with the values); actives 0.17% (n = 300,000);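 active = replicate mean above 50%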;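 note: 50 nL library stock added to about 25 µL; numbers are from one replicate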
# PrP 5UTR inh = inhibition of PrP 5' UTR reporter expression; cell-based PrP 5' UTR mRNA reporter, plate reader; inhibition, % (test concentration not listed); actives 0.35% (n = 340,000); AID 488862, 2010;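 active = every replicate at 50% or more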;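 note: 0 = median of the neutral control wells; tested in H4 reporter cells; numbers are from one replicate; inactives centre near -14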
# Mtb hypoxia inh = PubChem AID 1159583; M. tuberculosis hypoxia-regulated fluorescent reporter, fluorescence; actives 0.1% (n = 300,000); fluorescence inhibition, % (test concentration not listed);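 active = 35 to 45% if threefold the growth effect, above 45% if 1.5-fold the growth effect; inactive = the rest, general growth blockers included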;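 note: wells of about 50 µL received 100 nL stock; 0% = vehicle wells and 100% = reference inhibitor wells; whole bacteria with a GFP reporter of the hypoxia response; strong numbers were not always called active; many hits fall short of the cut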
# Mtb hypoxia inh growth = also measured in Mtb hypoxia inh; calls as there; growth inhibition, %; measured here: M. tuberculosis growth (absorbance);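 0% = vehicle and 100% = reference antibiotic; read after six days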
# Active calls of the source: *; . = not tested or not shown.
1	CC1CCC2(CC1)NC(=O)N(CC(=O)NCc1ccc(Cl)cc1)C2=O (configuration not stated)
2	NS(=O)(=O)c1ccc(NC(=S)NC2CCCCC2)cc1
3	C=CCOc1ccc(CNn2nnnc2N)cc1
4	O=C(CSc1nnc(CNC(=O)c2c(F)cccc2Cl)o1)NC1CCCCC1
5	O=C(c1cc2ccccc2oc1=O)N(Cc1cccs1)Cc1ccccc1Cl
6	CC1CN=C(Nc2ccccc2)N1CCCC1CCCCC1 (configuration not stated)

Assay by compound	1	2	3	4	5	6
Bead autofluor	3569	4044	4301	6473	3574	.
ugtP null kill	7	1	6	6	6	2
Sa RN4220 lethal	5.0	-2.4	6.3	3.0	17	4.8
BJeLR viability	.	.	-2	-13	-2	.
PrP 5UTR inh	-10	-1	-6	0	-34	.
Mtb hypoxia inh	3	2	7	5	0	7
Mtb hypoxia inh growth	12	-9	12	-3	1	5

7	COc1ccc(N=C2c3ccccc3-c3ccc([N+](=O)[O-])cc32)cc1
8	CC[C@H](C)[C@H](NC(N)=O)C(=O)NCCc1ccc(OC)cc1
9	C(=Nn1cnnc1)c1ccc(-c2ccccc2)cc1
10	COc1ccccc1NC(=S)NNC(=O)c1cc(C)n(C)n1
11	O=C(c1ccccc1)C1CCN(C(=O)c2c(F)cccc2F)CC1
12	OCCN1CCN(CC(O)COCc2ccc3c(c2)OCO3)CC1 (configuration not stated)

Assay by compound	7	8	9	10	11	12
Bead autofluor	3617	5830	.	4407	3809	2444
ugtP null kill	-1	5	-3	6	6	1
Sa RN4220 lethal	7.2	4.1	4.0	1.5	5.3	0.7
BJeLR viability	.	3	.	6	3	-1
PrP 5UTR inh	-25	-22	.	-3	-16	-27
Mtb hypoxia inh	6	10	6	.	15	.
Mtb hypoxia inh growth	-3	3	3	.	18	.

# Filtered by structure, the entries above with a halogen (four)
1	CC1CCC2(CC1)NC(=O)N(CC(=O)NCc1ccc(Cl)cc1)C2=O (configuration not stated)
4	O=C(CSc1nnc(CNC(=O)c2c(F)cccc2Cl)o1)NC1CCCCC1
5	O=C(c1cc2ccccc2oc1=O)N(Cc1cccs1)Cc1ccccc1Cl
11	O=C(c1ccccc1)C1CCN(C(=O)c2c(F)cccc2F)CC1

Assay by compound	1	4	5	11
Bead autofluor	3569	6473	3574	3809
ugtP null kill	7	6	6	6
Sa RN4220 lethal	5.0	3.0	17	5.3
BJeLR viability	.	-13	-2	3
PrP 5UTR inh	-10	0	-34	-16
Mtb hypoxia inh	3	5	0	15
Mtb hypoxia inh growth	12	-3	1	18

# Additional compounds
13	O=C(CNC(=O)C(c1ccccc1)c1ccccc1)NN=Cc1ccc(C(=O)O)cc1
14	CC1(C)Cc2c(c(-c3ccco3)[nH]c(=O)c2C#N)CS1
15	CCOC(=O)c1c(CS(=O)(=O)c2ccccc2)n(C)c2cc(Br)c(O)cc12
16	Cn1cccc1CC(=O)NN=Cc1cc([N+](=O)[O-])ccc1Cl
17	CC(C)CC(NC(=O)c1nc[nH]c1C(=O)N1CCc2ccccc2C1)C(=O)OCc1ccccc1 (configuration not stated)
18	O=C(N/N=C\C=C\c1ccc2c(c1)OCO2)c1ccc(F)cc1

Assay by compound	13	14	15	16	17	18
Bead autofluor	.	4073	4085	.	.	2202
ugtP null kill	2	6	6	-5	-25	.
Sa RN4220 lethal	1.3	8.9	1.7	5.3	1.9	.
BJeLR viability	.	9	-14	.	.	-12
PrP 5UTR inh	.	-7	-18	.	.	-21
Mtb hypoxia inh	3	5	19	5	7	.
Mtb hypoxia inh growth	-11	5	-3	14	8	.

19	CCCCOc1ccc(N(CC(=O)NCC2CCCO2)C(=O)CCC(=O)Nc2nccs2)cc1 (configuration not stated)
20	CCCn1c(C)cc(C(=O)COc2ncnc3sccc23)c1C
21	CCN1CCCC1CNc1ccc(S(C)(=O)=O)cc1[N+](=O)[O-] (configuration not stated)
22	CC1CN(S(=O)(=O)c2ccc(C(=O)Nc3sccc3C(N)=O)cc2)CC(C)O1 (configuration not stated)
23	CC[C@@]1(c2ccccc2OC)C(=O)N(C(=O)OC)N1C(=O)OC
24	CCCN1C2CCCC1CC(NC(C)=O)C2 (configuration not stated)

Assay by compound	19	20	21	22	23	24
Bead autofluor	4447	15970	3178	2325	3994	3788
ugtP null kill	-3	5	-2	-1	-3	-3
Sa RN4220 lethal	0.3	3.0	2.3	0.9	-0.9	1.9
BJeLR viability	-9	-7	0	-7	5	-1
PrP 5UTR inh	-3	-68	-10	-16	-26	8
Mtb hypoxia inh	4	8	4	0	1	5
Mtb hypoxia inh growth	5	3	4	0	-6	6

25	COc1ccc(OC)c(NC(=O)c2ccc3c(c2)C(=O)N(CC2CCCO2)C3=O)c1 (configuration not stated)
26	CN1N=C2c3ccccc3CCC2C1c1ccc(F)cc1 (configuration not stated)
27	CC1=CC(C)(C)NC(=S)N1c1ccccc1
28	Fc1cccc(NC(=S)N2CCn3cccc3C2c2cccnc2)c1 (configuration not stated)
29	COc1ccc(CN(CC(=O)NCCC(C)C)C(=O)CCC(=O)Nc2nccs2)cc1
30	FC(F)(F)c1nc(N2CCCC2)ncc1-c1nnnn1-c1ccccc1

Assay by compound	25	26	27	28	29	30
Bead autofluor	6260	5773	9673	4032	3207	4765
ugtP null kill	2	4	2	-4	6	23
Sa RN4220 lethal	0.6	2.2	-2.3	1.5	5.7	5.7
BJeLR viability	-3	-8	-2	-6	6	-8
PrP 5UTR inh	-21	.	0	14	3	-8
Mtb hypoxia inh	-2	17	-3	12	6	11
Mtb hypoxia inh growth	-20	13	10	6	1	8

31	CC(C)(C)C(=O)NCCCNc1ccc([N+](=O)[O-])cc1
32	C/C(=N/OCO/N=C(\C)c1ccc(F)cc1F)c1ccc(F)cc1F
33	COc1ccc(OC)c(S(=O)(=O)N(C)CC(=O)Nc2ccccc2OC)c1
34	Cc1ccc(-c2ccccc2[C@@H]2C[C@H]3CN(C)C(=O)[C@]34CCCN24)o1
35	O=C(Cn1cc(C(=O)C(F)(F)F)c2ccccc21)Nc1ccccc1F
36	Cn1c(=O)[nH]c(=O)c2c1nc(SCC(O)CO)n2Cc1ccccc1Cl (configuration not stated)

Assay by compound	31	32	33	34	35	36
Bead autofluor	4355	1961	3067	4714	3981	7516
ugtP null kill	2	.	-3	6	4	0
Sa RN4220 lethal	-1.1	.	0.5	0.8	1.4	-1.4
BJeLR viability	11	-7	14	-4	-10	-2
PrP 5UTR inh	-11	0	-13	-20	-14	-36
Mtb hypoxia inh	3	.	-1	-6	18	4
Mtb hypoxia inh growth	7	.	7	6	3	-1

37	COc1ccc(C(=O)N/N=C/c2ccccc2OC(=O)c2ccccc2)cc1
38	O=C(NCCN1CCOCC1)c1ccc2c(c1)N(Cc1ccc(F)cc1)C(=O)c1ccccc1S2(=O)=O
39	CCNS(=O)(=O)c1cccc(C(=O)c2c(C)cc3ccccn23)c1
40	CON(C)C(=O)CC1(CN(Cc2ccccc2)C(=O)OC(C)(C)C)CCCCC1
41	CCn1c(SCC(=O)Nc2ccc(C)cc2)nc2sc3c(c2c1=O)CCN(C)C3
42	CN(CC(=O)Nc1cccc(F)c1)C(=O)CCCc1cccs1

Assay by compound	37	38	39	40	41	42
Bead autofluor	4399	4411	2437	3448	6036	10613
ugtP null kill	.	-12	-6	-1	-2	26
Sa RN4220 lethal	.	-4.8	1.0	0.3	14	3.3
BJeLR viability	14	-4	9	.	0	-6
PrP 5UTR inh	-55	-10	-9	-15	-35	-24
Mtb hypoxia inh	.	-16	0	-5	-4	-5
Mtb hypoxia inh growth	.	-2	0	-14	5	-4

43	COc1cc(/C=C(\C#N)C(=O)Nc2ccc3c(c2)OCCO3)ccc1O
44	CCn1nc(C(=O)N2CCN(Cc3ccc4c(c3)OCO4)CC2)c2ccccc2c1=O
45	c1ccc(-c2nn3cnnc3c3ccccc23)cc1
46	CC1CN(CC(=O)NCc2ccc(Cl)cc2)CC(C)O1 (configuration not stated)
47	COc1ccc(CCNC(=O)CSC2=NS(=O)(=O)c3cc(Cl)ccc3N2)cc1OC
48	Cc1ccc(Nc2nc(N)nc(CN3CCc4ccccc4C3)n2)cc1

Assay by compound	43	44	45	46	47	48
Bead autofluor	4875	5358	4509	3391	6655	4254
ugtP null kill	.	-13	8	5	12	-10
Sa RN4220 lethal	.	5.3	6.7	-2.8	4.6	-1.2
BJeLR viability	10	3	-4	-11	-8	0
PrP 5UTR inh	-21	-16	-9	-29	-21	-11
Mtb hypoxia inh	.	-1	16	-7	10	-1
Mtb hypoxia inh growth	.	10	8	7	9	-2

49	CCCNC(=S)Nc1ccc(Nc2ccccc2)cc1
50	CCNC(=S)N(CCN(CC)CC)Cc1cc2cc3c(cc2[nH]c1=O)OCO3
51	CCc1ccc(NC(=S)Nc2cc(C(=O)O)ccc2N2CC3CC(C2)c2cccc(=O)n2C3)cc1 (configuration not stated)
52	O=C(CSc1nnc(-c2ccccc2)o1)N1CCOCC1
53	COc1ccc(OC)c(NC(=O)C(CCS(C)(=O)=O)NC(C)=O)c1 (configuration not stated)
54	O=C(NCCCO)c1c(O)c2cccc3c2n(c1=O)CCC3

Assay by compound	49	50	51	52	53	54
Bead autofluor	3506	3697	4343	9087	7718	3056
ugtP null kill	2	3	3	-1	2	4
Sa RN4220 lethal	-3.3	0.5	1.8	4.3	2.7	4.1
BJeLR viability	0	-1	-2	-13	7	-1
PrP 5UTR inh	-26	-15	-29	-27	-2	-13
Mtb hypoxia inh	.	21	4	-3	10	2
Mtb hypoxia inh growth	.	6	4	11	6	2

55	CC(C)(C)C(=O)NC(=S)NNC(=O)C(c1ccccc1)c1ccccc1
56	Cc1cnc(C(=O)OCC(=O)c2ccc(C3CCCCC3)cc2)cn1
57	Cc1nn(C)c(C)c1/C=C(/C(=O)C(C)(C)C)n1cncn1
58	O=C(CSc1nc(O)cc(=O)n1-c1ccccc1)Nc1nc2ccccc2s1
59	CN(C(=O)c1cc(COc2ccc(F)c(F)c2)on1)C1CCOC1 (configuration not stated)
60	O=C(CCCN1C(=O)C(c2ccccc2)Oc2cccnc21)NCCc1ccc(Cl)cc1 (configuration not stated)

Assay by compound	55	56	57	58	59	60
Bead autofluor	3277	5075	3839	3979	4294	5806
ugtP null kill	25	7	-6	8	5	2
Sa RN4220 lethal	41	3.9	1.7	3.0	3.0	0.6
BJeLR viability	17	-7	9	1	3	0
PrP 5UTR inh	6	-13	9	-5	-11	-15
Mtb hypoxia inh	8	12	14	6	5	1
Mtb hypoxia inh growth	10	-5	14	5	-2	-3

61	CCOC(=O)N1CCN(S(=O)(=O)c2ccc(F)c(C(=O)Nc3cccc(C)c3C)c2)CC1
62	Cc1ccc(-n2nc(C)c(C(=O)N3CCN(C(=O)c4ccco4)CC3)c2-n2cccc2)cc1
63	COC(=O)c1ccc(NC(=O)c2cc(-c3ccccn3)nc3ccccc23)cc1
64	COc1ccc(/C=N/Nc2cc(C)nc(-n3nc(C)cc3C)n2)c(OC)c1
65	CCN(CC)CCC(=O)N1c2ccccc2Sc2ccc(Cl)cc21
66	Fc1ccc(-c2n[nH]c(=S)n2/N=C/c2c[nH]c3ccccc23)cc1

Assay by compound	61	62	63	64	65	66
Bead autofluor	15579	5327	4203	2430	4415	2120
ugtP null kill	3	-1	6	.	3	.
Sa RN4220 lethal	1.2	2.9	10	.	1.6	.
BJeLR viability	0	-5	5	13	4	10
PrP 5UTR inh	-20	-10	11	8	-23	-12
Mtb hypoxia inh	5	2	-3	.	11	.
Mtb hypoxia inh growth	2	3	-1	.	10	.

67	COc1ccc([N+](=O)[O-])cc1NS(=O)(=O)c1ccc(C)cc1
68	O=C(Nc1nnc(SCc2ccccc2Cl)s1)c1cccc([N+](=O)[O-])c1
69	O=C(CSCc1ccccc1Cl)NN1C(=O)c2ccccc2C1=O
70	CCOc1ccc(NC(=O)CSc2nnc(-c3ccoc3C)n2CC2CCCO2)cc1 (configuration not stated)
71	CC(C)c1ccc(NC(=O)C2CC(=O)Nc3nc4ccccc4n32)cc1 (configuration not stated)
72	CCOC(=O)c1c(N)nn(C(=O)C(C)(C)C)c1-c1ccccc1
73	Cc1c(C(=O)N/N=C/c2ccc(O)cc2)sc(=S)n1C
74	COc1ccc2c(=O)c(-c3ccc(OC)c(OC)c3)coc2c1

Assay by compound	67	68	69	70	71	72	73	74
Bead autofluor	3215	2564	5887	3888	4337	22970*	2245	5456
ugtP null kill	-1	79	10	-1	10	0	.	1
Sa RN4220 lethal	6.5	54	6.8	3.2	2.7	2.9	.	2.7
BJeLR viability	4	6	-16	-8	-11	2	-15	8
PrP 5UTR inh	-19	-21	-43	-40	-17	-8	-19	-54
Mtb hypoxia inh	-1	11	11	7	6	-19	.	.
Mtb hypoxia inh growth	-2	2	-1	7	1	-2	.	.
